# AF4-AF9 inh: MLL-AF4/AF9 protein interaction inhibition; AlphaScreen, biotin-AF4 peptide binding to FLAG-AF9; inhibition, % at 10 µM; hit rate 0.47% among 350,000; AID 651704;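 active = every replicate reaching a set inhibition limit, whatever the replicate mean, cut at about 25% in these data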;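 note: 0% = plate neutral control median and 100% = total signal loss; the record names both 10 and 1 µM as test concentration; the first replicate is given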
# Target sequence (P42568 whole entry, looked up): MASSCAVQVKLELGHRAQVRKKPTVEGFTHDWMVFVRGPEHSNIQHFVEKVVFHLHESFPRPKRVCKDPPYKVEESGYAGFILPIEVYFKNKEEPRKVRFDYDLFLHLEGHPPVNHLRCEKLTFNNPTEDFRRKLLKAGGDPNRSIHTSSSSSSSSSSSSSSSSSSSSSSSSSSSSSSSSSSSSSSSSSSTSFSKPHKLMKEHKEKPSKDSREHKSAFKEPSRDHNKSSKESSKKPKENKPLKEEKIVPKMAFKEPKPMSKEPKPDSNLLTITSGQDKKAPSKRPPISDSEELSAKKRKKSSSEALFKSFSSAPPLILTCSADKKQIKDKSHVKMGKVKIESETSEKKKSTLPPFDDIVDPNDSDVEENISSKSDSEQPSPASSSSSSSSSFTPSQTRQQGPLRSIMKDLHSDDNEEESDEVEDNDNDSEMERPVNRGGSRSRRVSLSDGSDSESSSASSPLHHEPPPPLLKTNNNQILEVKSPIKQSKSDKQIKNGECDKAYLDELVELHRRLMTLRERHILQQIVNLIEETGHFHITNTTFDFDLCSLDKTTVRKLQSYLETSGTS
# rRNA inh HTS: inhibitors of bacterial rRNA selective over humanized ribosomes; E. coli WT GFP vs humanized-ribosome RFP mutants, fluorescence, 24 h; hits give low values; DMSO median 0, no signal -100; GFP signal change (wild-type ribosome), % (test concentration not listed); hit rate 1.6% among 350,000; AID 720706;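 active = significant combined selectivity score with lowered wild-type GFP, culture density cut under 30%, mutant RFP and density less affected; inactive = any of these conditions unmet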; note: one replicate is shown; some compounds called inactive have numbers as strong as hits
# rRNA inh HTS OD600: also measured in rRNA inh HTS; calls as there; OD600 change, %; measured here: OD600 growth;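 optical density of the mix in the first replicate; 0 = DMSO median and -100 = no signal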
# rRNA inh HTS RFP: further read-out of rRNA inh HTS, marked with its call; RFP signal change, %; measured here: RFP humanized mutant strains;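 first replicate; 0 = DMSO median and -100 = no signal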
# Numbers without * were called inactive; & = joins results of further samples. The list is partial, so the mix of outcomes need not match the whole.
SMILES,AF4-AF9 inh,rRNA inh HTS,rRNA inh HTS OD600,rRNA inh HTS RFP
CCCCCCn1cc(CN2CC(N3CCN(CCO)CC3)CS2(=O)=O)nn1 (configuration not stated),1.5,15,5,1.3
CCCNC(=O)N(C)C[C@@H]1Oc2cc(-c3ccncc3)ccc2S(=O)(=O)N([C@@H](C)CO)C[C@@H]1C,-4.2,1,-5,-4.0
COc1cccc(NC(=O)N2CC3(C2)[C@H](c2ccccc2)[C@@H](CO)N3C(=O)C2CCCC2)c1,-1.6,-6,-9,0.8
CCNC(=O)[C@@H]1[C@@H](CO)[C@@H]2Cn3c(ccc(-c4ccc(F)cc4)c3=O)[C@H]1N2C(=O)C1CC1,-0.6,-1,2,1.8
COCC(=O)N(C)C[C@@H]1Oc2cc(C3=CCCC3)ccc2S(=O)(=O)N([C@@H](C)CO)C[C@H]1C,-1.7,-3,-12,-1.1
C=CCNc1oc(-c2ccc(Cl)cc2)nc1C#N,3.8,3,11,-5.0
C[C@@H]1CN([C@H](C)CO)C(=O)c2cc(-c3ccccc3F)cnc2O[C@@H]1CN(C)Cc1cccc(C(=O)O)c1,-9.9,-1,11,0.0
C[C@H]1CN([C@@H](C)CO)C(=O)CCCn2nncc2CO[C@H]1CN(C)S(=O)(=O)c1cccc(F)c1,-2.5&0.4&-0.5,11&0,8&4,1.1&0.2
C[C@H]1CN([C@@H](C)CO)C(=O)c2cc(N(C)C)ccc2O[C@@H]1CN(C)C(=O)Nc1ccc(F)cc1,-2.5,1,14,3.0
O=C(N[C@H]1CC[C@H](CCNS(=O)(=O)c2ccc(F)cc2)O[C@@H]1CO)C1CCCC1,-0.2,-3,-5,0.0
O=C1NC[C@H](Cc2ccccc2)N(C[C@@H]2CCCN2C[C@H](Cc2ccc(O)cc2)N2C[C@H](Cc3ccc(O)cc3)N(CCc3ccccc3)C(=O)C2=O)C1=O,-0.2,12,3,4.9
COc1ccc(NC(=O)N(C)C[C@@H]2OCCCC[C@@H](C)Oc3ccc(NS(=O)(=O)c4ccccc4)cc3C(=O)N([C@@H](C)CO)C[C@H]2C)cc1,0.5,-11,-6,-2.2
CCc1nc2ccc(C(=O)NCCN3CCCC3)cn2c1N(C)Cc1ccc(OC)cc1,0.8,-10,-6,-6.5
CCCN1[C@@H]2Cn3c(ccc(-c4cccnc4)c3=O)[C@H]1[C@@H](C(=O)NC1CCCC1)[C@@H]2CO,-23,2,6,0.6
C=CCn1c2ccccc2c2nnc(SCC(=O)OC)nc21,-4.7,5,-1,-0.8

# Of the compounds above, 3 have an aryl methoxy group:
SMILES,AF4-AF9 inh,rRNA inh HTS,rRNA inh HTS OD600,rRNA inh HTS RFP
COc1cccc(NC(=O)N2CC3(C2)[C@H](c2ccccc2)[C@@H](CO)N3C(=O)C2CCCC2)c1,-1.6,-6,-9,0.8
COc1ccc(NC(=O)N(C)C[C@@H]2OCCCC[C@@H](C)Oc3ccc(NS(=O)(=O)c4ccccc4)cc3C(=O)N([C@@H](C)CO)C[C@H]2C)cc1,0.5,-11,-6,-2.2
CCc1nc2ccc(C(=O)NCCN3CCCC3)cn2c1N(C)Cc1ccc(OC)cc1,0.8,-10,-6,-6.5

# More results follow.
SMILES,AF4-AF9 inh,rRNA inh HTS,rRNA inh HTS OD600,rRNA inh HTS RFP
CCNC(=O)C[C@@H]1CC[C@H]2[C@@H](COC[C@H](O)CN2C(=O)Nc2ccc3c(c2)OCO3)O1,-0.6,5,12,4.8
C[C@H](CO)N1C[C@H](C)[C@H](CN(C)C(=O)Nc2cccc3ccccc23)Oc2c(NS(=O)(=O)c3ccccc3)cccc2C1=O,1.1,5,3,-0.3
C[C@@H]1CN([C@H](C)CO)S(=O)(=O)c2ccc(C3=CCCC3)cc2O[C@@H]1CN(C)CC1CCOCC1,3.2,5,0,-0.2
CN(C)C(=O)c1ccc(-c2ccccc2[C@H]2[C@@H](C#N)N(C(=O)C3CC3)[C@@H]2CO)cc1,-2.0,6,28,0.5
C[C@H]1CN([C@@H](C)CO)C(=O)c2cc(C3=CCCCC3)cnc2O[C@@H]1CN(C)Cc1ccccc1F,13,2,8,0.7
C[C@H]1CN([C@@H](C)CO)C(=O)c2cc(C#Cc3ccccn3)cnc2O[C@@H]1CN(C)C(=O)c1ccccn1,-2.9,-1,16,-3.3
COC(=O)C[C@H]1CC[C@@H](NC(=O)C2CC2)[C@@H](CO)O1,1.9,13,6,0.7
C[C@H](CO)N1C[C@H](C)[C@H](CN(C)CC2CCCCC2)Oc2ccc(NC(=O)Cc3ccccc3)cc2CC1=O,-3.8,-1,4,-1.3
O=C(N[C@H]1CC[C@H](CCNS(=O)(=O)c2cccc(Cl)c2)O[C@H]1CO)c1ccccc1,-0.7,-4,4,-3.1
CCCC(=O)N1CCC2(CC1)CN(C(=O)CC1CC1)[C@H](CO)c1c2c2ccc(OC)cc2n1C,0.1,-1,-1,-2.7
C[C@H]1CN([C@@H](C)CO)C(=O)Cc2cc(NC(=O)Nc3ccc4c(c3)OCO4)ccc2O[C@H]1CN(C)Cc1ccncc1,8.0,-5,-15,2.3
Cc1ccc(Cc2c(-c3ccc(Cl)cc3)nc3c(Cl)cc(C(F)(F)F)cn23)cc1,0.6,6,6,2.9
CO[C@@H]1CN(C)C(=O)c2ccc(NS(=O)(=O)c3ccc(C)cc3)cc2OC[C@H](C)N(C)C[C@H]1C,-1.4,3,3,0.0
CCCNC(=O)N1CC2(C1)[C@H](c1ccccc1)[C@@H](CO)N2CC1CC1,-2.2,1,1,-1.5
Cc1ccc(NC(=O)C(C)OC(=O)c2cc(=O)[nH]c3ccccc23)cc1S(=O)(=O)N1CCOCC1 (configuration not stated),3.2,-9,-2,3.2
COc1ccc(CN(C)C[C@@H]2OCCCC[C@H](C)Oc3ccc(NC(=O)NC4CCCCC4)cc3C(=O)N([C@@H](C)CO)C[C@@H]2C)cc1,8.7,6,2,1.0
N#C[C@H]1N[C@H](CO)[C@H]1c1ccc(C#Cc2ccc(F)cc2)cc1,-2.5,1,-8,-3.9
CO[C@H](CN(C)S(=O)(=O)c1ccccc1)[C@H](C)CN(C(=O)Nc1ccccc1F)[C@H](C)CO,-1.3,1,0,-1.1
COCc1cn(CC[C@@H]2CC[C@@H](NC(=O)Nc3ccc4c(c3)OCO4)[C@@H](CO)O2)nn1,-0.9&-1.1,-2&11,8&11,-3.7&3.3
Cc1noc(C)c1NC(=O)Nc1ccc2c(c1)C(=O)N([C@H](C)CO)C[C@H](C)[C@@H](CN(C)C(=O)Nc1ccc(C(F)(F)F)cc1)OCCCC[C@@H](C)O2,-0.1,-1,10,-2.8
Cc1ccc(S(=O)(=O)N(C)C[C@@H]2Oc3c(NC(=O)C4CCOCC4)cccc3C(=O)N([C@@H](C)CO)C[C@@H]2C)cc1,1.7,1,-12,-1.7
COCC#Cc1cnc2c(c1)C(=O)N([C@@H](C)CO)C[C@@H](C)[C@@H](CN(C)C(=O)Cc1ccccc1)O2,-3.7,4,-1,-1.1
Cc1ccc2nc(-c3ccc(Cl)cc3)c(Cc3ccccn3)n2c1,1.0,-34,-34,-2.0
CCC(=O)Nc1ccc2c(c1)C(=O)N(C)[C@@H]1CC[C@@H](CC(=O)NCCCN(C)C)O[C@H]1CO2,0.2,0,10,-2.1
CNC[C@H]1Oc2ccc(NC(=O)Nc3c(C)noc3C)cc2C(=O)N([C@@H](C)CO)C[C@H]1C,-3.7,-3,0,-3.2
CO[C@@H]1CN(C)C(=O)c2ccc(NC(C)=O)cc2OC[C@H](C)N(C(=O)c2cnccn2)C[C@@H]1C,-0.1,4,11,-1.7
C[C@H]1CN([C@@H](C)CO)C(=O)c2cc(NC(=O)Cc3cn(C)c4ccccc34)ccc2O[C@H]1CN(C)Cc1ccc(Cl)c(Cl)c1,1.3,-2,2,3.5
CCC(=O)N1C[C@@H](O)COC[C@H]2O[C@H](CC(=O)NC)CC[C@@H]21,-3.8,3,-3,-1.9
C[C@H]1CN([C@@H](C)CO)C(=O)Cc2cc(NC(=O)CCC(F)(F)F)ccc2O[C@@H]1CN(C)S(=O)(=O)c1ccc(Cl)cc1,-0.3,-2,-9,0.1
C[C@H]1CN([C@@H](C)CO)C(=O)c2cc(NS(=O)(=O)c3cn(C)cn3)ccc2O[C@H]1CN(C)C,-1.6,1,6,0.3
CC(C)C(=O)Nc1ccc2c(c1)C(=O)N(C)[C@H]1CC[C@@H](CC(=O)NCC3CC3)O[C@H]1CO2,-2.9,1,8,-1.1
CCC(=O)Nc1ccc2c(c1)OC[C@H](C)N(C(=O)c1ccc(F)cc1)C[C@@H](C)[C@@H](OC)CN(C)C2=O,-0.5,0,-2,-0.5
O=C(C1CCCC1)N1CC2(C1)[C@H](c1ccccc1)[C@H](CO)N2Cc1ccccc1F,3.7,-26,-65,24
CO[C@@H]1CN(C)C(=O)c2cc(NC(=O)C3CC3)ccc2OC[C@H](C)N(C(=O)c2ccncc2)C[C@@H]1C,6.2,-2,4,-4.1
COc1ccccc1S(=O)(=O)N[C@@H]1C=C[C@@H](CC(=O)NCc2cccc(F)c2)O[C@H]1CO,-2.5,-3,13,5.1
COc1cccc(NC(=O)C[C@H]2CC[C@@H]3[C@H](COc4ccc(NC(=O)C5CCOCC5)cc4C(=O)N3C)O2)c1,-0.4,0,6,-0.8
CC(C)C[C@H]1CNC(=S)N1CC1CCCN1C[C@H](Cc1ccccc1)N1C[C@H](Cc2ccc(O)cc2)N(CC2CCCCC2)C1=S (some centres not stated),1.8,18,8,4.5
CO[C@@H]1CN(C)C(=O)c2cc(NC(=O)c3ccccc3F)ccc2OC[C@H](C)N(C(C)=O)C[C@H]1C,-1.8,3,2,-2.0
O=C(C[C@H]1CC[C@H]2[C@@H](COC[C@@H](O)CN2S(=O)(=O)c2ccccc2Cl)O1)NCc1ccccc1Cl,-1.0,-4,-21,2.5
Cc1noc(C)c1S(=O)(=O)Nc1cccc2c1O[C@@H](CN(C)S(C)(=O)=O)[C@@H](C)CN([C@@H](C)CO)C2=O,-1.6,1,3,-2.2
C[C@H]1CN([C@@H](C)CO)S(=O)(=O)c2ccc(C3=CCCC3)cc2O[C@@H]1CN(C)C,-0.7,-1,6,-1.6
C[C@H](CO)N1C[C@H](C)[C@@H](CN(C)Cc2ccc(C(=O)O)cc2)Oc2ncc(C3=CCCC3)cc2C1=O,-3.0,-2,3,-1.4
C[C@H](CO)N1C[C@H](C)[C@@H](CN(C)C(=O)Nc2ccc3c(c2)OCO3)Oc2ccc(NC(=O)C3CCCCC3)cc2CC1=O,1.2,-2,-4,-2.6
Cc1noc(C)c1S(=O)(=O)Nc1ccc2c(c1)C(=O)N([C@@H](C)CO)C[C@@H](C)[C@@H](CN(C)C(=O)Nc1ccc(C(F)(F)F)cc1)O2,-1.2,-2,-3,-0.1
C[C@H](CO)N1C[C@H](C)[C@@H](CN(C)C(=O)Cc2ccccc2)OCc2cnnn2CCCC1=O,-4.0&-1.4&-1.6,9&-2,8&1,-1.5&-0.5

# Arranged by the number under rRNA inh HTS OD600 (low to high): some entries from above
SMILES,AF4-AF9 inh,rRNA inh HTS,rRNA inh HTS OD600,rRNA inh HTS RFP
O=C(C1CCCC1)N1CC2(C1)[C@H](c1ccccc1)[C@H](CO)N2Cc1ccccc1F,3.7,-26,-65,24
Cc1noc(C)c1NC(=O)Nc1ccc2c(c1)C(=O)N([C@H](C)CO)C[C@H](C)[C@@H](CN(C)C(=O)Nc1ccc(C(F)(F)F)cc1)OCCCC[C@@H](C)O2,-0.1,-1,10,-2.8
C=CCNc1oc(-c2ccc(Cl)cc2)nc1C#N,3.8,3,11,-5.0

# Remaining list, next part.
SMILES,AF4-AF9 inh,rRNA inh HTS,rRNA inh HTS OD600,rRNA inh HTS RFP
COc1ccccc1C(=O)N1O[C@]23C=C[C@]14C[C@@H](O)CC[C@]4(C)C2CC[C@]1(C)[C@@H]([C@H](C)/C=C/[C@H](C)C(C)C)CC[C@H]13 (some centres not stated),-3.1,15,16,-4.9
Cc1ccccc1-c1ccc([C@@H]2[C@H](CO)N3CCCCN(S(C)(=O)=O)C[C@@H]23)cc1,0.9,2,2,-2.8
Cc1noc(C)c1S(=O)(=O)N(C)C[C@H]1Oc2ccc(NS(=O)(=O)c3cn(C)cn3)cc2CC(=O)N([C@@H](C)CO)C[C@@H]1C,-1.8,0,5,-2.9
C[C@H](CO)N1C[C@H](C)[C@H](CN(C)Cc2ccc(Oc3ccccc3)cc2)Oc2ccc(NC(=O)Nc3ccc4c(c3)OCO4)cc2C1=O,4.6,-1,-2,3.4
C[C@H](CO)N1C[C@H](C)[C@H](CN(C)C(=O)Nc2cccc3ccccc23)Oc2ccc(NC(=O)C3CCCCC3)cc2CC1=O,-1.1,-2,-3,1.6
CC(=O)N(C)C[C@H]1Oc2ncc(C#CC(C)(C)O)cc2C(=O)N([C@H](C)CO)C[C@@H]1C,-12,6,1,-0.9
CN1c2ccc(-c3cccc(C#N)c3)cc2[C@@H]2[C@@H](CCN2C(=O)Cc2ccccn2)[C@H]1CO,-0.1,6,12,-1.7
COc1ccc(-c2ccc3c(c2)[C@H]2[C@H](CCN2S(=O)(=O)c2ccc(F)cc2)[C@H](CO)N3C)cc1,6.4,-1,4,-4.3
C[C@H](CO)N1C[C@H](C)[C@@H](CN(C)Cc2ccc(F)cc2)Oc2ncc(C#CCN(C)C)cc2C1=O,6.2,-2,-6,-4.2
CC(C)NC(=O)Nc1cccc2c1O[C@H](CN(C)Cc1ccccc1)[C@H](C)CN([C@H](C)CO)C2=O,-1.9,4,11,-0.8

# Screens as filed in PubChem.
